# Insulin prom inh – TRM-6 insulin promoter activity inhibition; actives 0.9% (n = 130,000); TRM-6 cells (human fetal islet line), insulin promoter-eGFP reporter, imaging; reporter expression induced with tamoxifen; inhibition, % at 2 µM;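 active = inhibition above the mean plus 3 SD, with well images judged a real hit on visual review, cut at about 60% in these data, passing the limit was not always enough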
# GALR2 agonist – GALR2 (human) receptor agonism. O43603. GALR2-expressing cells, agonist activation read-out. activation, %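 (tested at 5 µM)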. actives 0.48% (n = 140,000);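 active = above mean plus 3 SD of all compounds, about 5% in these data, not always enough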;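 note: 0% = vehicle buffer wells and 100% = reference agonist at full effect; tested in CHO reporter cells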
# PKD1 kinase inh – blocks activity of human protein kinase D1; Q15139; PKD1 kinase fluorescence polarization assay; inhibition, %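 (about 10 µM by stock and volumes)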; actives 0.056% (n = 200,000);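 active = inhibition of 50% or more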;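 note: controls were vehicle for no effect and a reference inhibitor for full effect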
# Target sequence (Q15139 whole entry, looked up): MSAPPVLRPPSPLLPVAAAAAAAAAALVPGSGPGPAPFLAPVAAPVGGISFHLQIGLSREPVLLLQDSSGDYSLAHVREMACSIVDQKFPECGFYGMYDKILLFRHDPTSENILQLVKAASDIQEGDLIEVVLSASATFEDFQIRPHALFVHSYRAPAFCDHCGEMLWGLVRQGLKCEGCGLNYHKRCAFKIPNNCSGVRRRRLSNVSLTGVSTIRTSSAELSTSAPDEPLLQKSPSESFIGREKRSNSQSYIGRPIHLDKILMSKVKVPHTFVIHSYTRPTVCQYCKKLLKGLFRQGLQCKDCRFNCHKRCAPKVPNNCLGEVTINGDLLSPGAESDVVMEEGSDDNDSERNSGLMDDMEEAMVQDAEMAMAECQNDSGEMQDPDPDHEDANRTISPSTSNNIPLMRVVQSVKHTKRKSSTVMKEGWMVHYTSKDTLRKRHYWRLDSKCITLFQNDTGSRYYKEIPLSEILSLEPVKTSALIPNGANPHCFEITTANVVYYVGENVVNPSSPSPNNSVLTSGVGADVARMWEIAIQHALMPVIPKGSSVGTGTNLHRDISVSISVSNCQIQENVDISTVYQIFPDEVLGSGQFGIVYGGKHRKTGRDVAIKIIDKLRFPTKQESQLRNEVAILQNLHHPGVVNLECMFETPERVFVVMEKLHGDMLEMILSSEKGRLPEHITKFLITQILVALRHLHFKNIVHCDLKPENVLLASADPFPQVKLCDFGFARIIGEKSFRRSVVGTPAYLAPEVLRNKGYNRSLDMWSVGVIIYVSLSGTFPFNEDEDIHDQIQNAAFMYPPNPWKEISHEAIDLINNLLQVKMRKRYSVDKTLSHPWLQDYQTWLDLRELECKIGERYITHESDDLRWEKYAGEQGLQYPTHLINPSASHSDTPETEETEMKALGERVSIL
# HSV augment – increases HSV replication in cells | HSV replication augmentation in cells, fold increase | maximum fold increase | actives 0.005% (n = 220,000) | AID 1956;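 active = peak rise of 1.5-fold or more in the series; tested in PC3 cells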;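 note: first round at 10 µM; read as green reporter fluorescence; hits show the peak of a series up to 25 µM; 1 = signal of infected wells without compound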
# RGS16-Gao HTS – regulators of human RGS16-Galphao interaction. bead-based flow cytometry RGS16-Galphao binding, fluorescence; actives lie on both sides. binding response (% of control), % at 10 µM. actives 0.38% (n = 220,000);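 active = below 25% or above 175%, edge rows of some plates excepted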;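 note: Galphao activated by GDP with aluminum fluoride before binding; 100% = wells without compound and 0% = beads without RGS; some results beyond the cut were filed as inactive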
# Insulin prom inh cell count – also measured in Insulin prom inh; calls as there; normalized cell count, %; measured here: cell count, toxicity; reference of the scale not given here;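 cells exposed to compound for 48 h; stained nuclei by imaging scaled within each plate; lower means fewer cells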
# HSV augment primary fold – further read-out of HSV augment, marked with its call; fold increase; compound at 10 µM; measured here: primary screen fold increase 10 uM; tested in PC3 cells;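 GFP signal in the first replicate; 1 = infected wells without compound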
# Active calls of the source: *; i = inactive; . = not tested or not shown.
nr	Compound	Insulin prom inh	Insulin prom inh cell count	GALR2 agonist	PKD1 kinase inh
1	CCOC(=O)C1CCN(c2nc3cc(OC)ccc3cc2C#N)CC1	.	.	-0.2	-13
2	COc1ccc(Oc2cccc(Cl)c2CNC(=O)c2ccccc2C(=O)O)cc1	.	.	.	.
3	CCN=c1scc(-c2ccco2)n1/N=C/c1ccc(O)cc1	4	92	0.9	-2
4	COC(=O)CC1C(=O)NCCN1C(=S)Nc1cc(C)cc(C)c1 (centres undefined)	-4	111	-0.7	-2
5	Cc1c([N+](=O)[O-])c(C/C=N/O)nn1C	.	.	.	.
6	COc1ccc(-n2nc(C(N)=O)c(O)cc2=O)cc1	11	132	.	-2
7	Cc1cccc(OC2(c3ccccc3)OC(=O)c3ccccc32)c1C (centres undefined)	.	.	-0.7	-7
8	Cn1c(N)c(C(=O)COc2ccc(Cl)cc2Cl)c(=O)n(C)c1=O	7	88	.	-9
9	COc1cccc(/C=N/NC(=O)c2ccoc2C)c1	.	.	.	.
10	CCCc1cc(=O)[nH]c(SCc2nc3ccccc3s2)n1	0	84	-1.9	-4
11	O=C(NC1CCCCCC1)c1ccc(=O)n(Cc2ccccc2)n1	-71	79	.	3
12	O=C1c2c([N+](=O)[O-])cc([N+](=O)[O-])cc2S(=O)N1Cc1ccccc1 (centres undefined)	21	92	.	-1
13	CCCCn1nnc(NC(=O)c2ccc(-c3ccccc3)cc2)n1	51	117	-2.1	-6
14	CCOc1ccccc1NC(=O)C1C2CCC3C(CCC21)C3(Cl)Cl (centres undefined)	35	96	.	5
15	CN(C)CCCOC(=O)c1cc2ccccc2o1	-21	114	-2.1	-2

nr	HSV augment	HSV augment primary fold	RGS16-Gao HTS
1	i	0.96	103
2	i	0.97	112
3	i	0.82	86
4	i	1	109
5	i	0.9	103
6	i	0.91	104
7	i	1	101
8	i	0.92	100
9	i	1	98
10	i	0.92	103
11	i	1	102
12	i	0.94	69
13	i	0.87	105
14	i	0.97	101
15	i	0.92	98

# (further entries)
nr	Compound	Insulin prom inh	Insulin prom inh cell count	GALR2 agonist	PKD1 kinase inh
16	CCOC(=O)c1sc(=S)n(-c2ccccc2)c1C	.	.	.	.
17	COCCn1c(=S)[nH]c2ncccc2c1=O	11	86	1.2	-8
18	CCCCc1nnc(NC(=O)CSc2nc(O)c(-c3ccccc3)c(=O)[nH]2)s1	50	118	.	5
19	Cc1ccc(S(=O)(=O)N2CCN(CC(=O)N/N=C\c3ccncc3)CC2)cc1	.	.	.	.
20	Cc1oc(-c2ccccc2F)nc1CN1CCC(C(=O)NCc2ccco2)CC1	.	.	-1.0	12
21	S=c1[nH]nc(-c2ccncc2)n1/N=C/c1ccccc1	.	.	0.4	3
22	CCOC(=O)C1CCN(C(=O)c2ccccc2Oc2ccccc2)CC1	0	144	-1.5	0
23	CN1C(=O)C(C(=O)NC(C)(C)C)C2c3ccccc3OC13CCCCC23 (centres undefined)	44	98	0.3	3
24	Cc1oc2cc(OCc3cnn(-c4ccccc4)c3)ccc2c(=O)c1Oc1ccccc1F	.	.	-0.8	-5
25	Cc1cc(CN(C)C(=O)CCc2nnc(Cc3cccc(C(F)(F)F)c3)o2)on1	.	.	.	3
26	Cc1cccc(C)c1NC(=S)N(Cc1cccs1)C1CCCC1	-80	115	.	-5
27	COc1ccc(NC(=O)N2c3ccccc3CC2C)cc1OC (centres undefined)	-37	125	-1.5	-1
28	O=C(OCc1cnc(Cl)s1)c1ccc(Cl)cc1	.	.	-0.3	-9
29	CSc1cccc(NC(=O)NCc2cccc(CNC(=O)Nc3cccc(SC)c3)c2)c1	.	.	.	.
30	Nc1nc(SCC(=O)N2CCOCC2)[nH]c(=O)c1-c1ccccc1	.	.	.	-8

nr	HSV augment	HSV augment primary fold	RGS16-Gao HTS
16	i	0.93	100
17	i	0.83	106
18	i	1.1	104
19	i	0.98	105
20	i	0.86	101
21	i	0.99	100
22	i	1	100
23	i	1	101
24	i	1	120
25	i	0.97	98
26	i	1	111
27	i	0.9	101
28	i	1	103
29	i	0.71	107
30	i	0.84	100

# Some entries already given, showing only RGS16-Gao HTS and HSV augment primary fold.
item | molecule | RGS16-Gao HTS | HSV augment primary fold
19 | Cc1ccc(S(=O)(=O)N2CCN(CC(=O)N/N=C\c3ccncc3)CC2)cc1 | 105 | 0.98
20 | Cc1oc(-c2ccccc2F)nc1CN1CCC(C(=O)NCc2ccco2)CC1 | 101 | 0.86

# Next section:
nr	Compound	Insulin prom inh	Insulin prom inh cell count	GALR2 agonist	PKD1 kinase inh
31	S=C(NCC1COc2ccccc2O1)Nc1ccc(Br)cc1 (centres undefined)	8	188	-0.7	0
32	CN(CCc1nc2ccc(Cl)cc2[nH]1)Cc1nc(CC2CC2)no1	.	.	.	1
33	CCOCCCNC(=O)C(NC(=O)Cc1c[nH]c2ccccc12)c1ccccc1 (centres undefined)	.	.	.	-3
34	CCN(C(=O)CSc1ncccc1C(=O)O)C1CCCCC1	.	.	.	-2
35	COc1cc(OC)c(S(=O)(=O)N2CCCCC2)cc1S(=O)(=O)N1CCCCC1	.	.	1.0	0
36	Cc1nnc(NC(=O)Nc2ccc(Cl)c(Cl)c2)s1	-13	110	-4.7	2
37	COc1cc(CCN2C(=O)N[C@@H](CCc3ccccc3)C(C(C)=O)=C2C)cc(OC)c1OC	9	67	-2.0	0
38	Cc1cc(/C=c2\sc3nc4ccccc4n3c2=O)c(C)n1-c1ccc(C(=O)O)cc1	-17	99	.	-4
39	C(=N\Nc1ccc2nncn2n1)/c1ccccn1	.	.	.	.
40	COC(=O)Cn1nnc(N2CCOCC2)n1	.	.	.	.
41	O=C(COc1ccc(C(=S)N2CCOCC2)cc1Cl)Nc1ccccc1Cl	27	138	.	-8
42	Cc1ccc(S(=O)(=O)CCc2nnc(NC(=O)c3cnccn3)s2)cc1	-46	121	-2.8	-9
43	Cc1ccccc1C(=O)c1c[nH]c(C(=O)NCC2CCCO2)c1 (centres undefined)	7	77	0.2	3
44	O=C(C1=COCCO1)N1CCN(C(c2ccccc2)c2ccccc2)CC1	-200	29	-2.3	16
45	COCCCNC(=O)CS(=O)(=O)Cc1nc(-c2cccc(OC)c2)oc1C	14	142	-2.9	-4

nr	HSV augment	HSV augment primary fold	RGS16-Gao HTS
31	i	0.91	102
32	i	0.98	98
33	i	0.94	97
34	i	1	104
35	i	1.1	99
36	i	0.65	104
37	i	1	113
38	i	1.3	102
39	i	0.85	105
40	i	1.1	95
41	i	0.79	95
42	i	0.98	103
43	i	1	101
44	i	1.2	101
45	i	1.1	98

# No new results follow: entries from further up.
nr	Compound	Insulin prom inh	Insulin prom inh cell count	GALR2 agonist	PKD1 kinase inh
33	CCOCCCNC(=O)C(NC(=O)Cc1c[nH]c2ccccc12)c1ccccc1 (centres undefined)	.	.	.	-3
34	CCN(C(=O)CSc1ncccc1C(=O)O)C1CCCCC1	.	.	.	-2
35	COc1cc(OC)c(S(=O)(=O)N2CCCCC2)cc1S(=O)(=O)N1CCCCC1	.	.	1.0	0
36	Cc1nnc(NC(=O)Nc2ccc(Cl)c(Cl)c2)s1	-13	110	-4.7	2
37	COc1cc(CCN2C(=O)N[C@@H](CCc3ccccc3)C(C(C)=O)=C2C)cc(OC)c1OC	9	67	-2.0	0
38	Cc1cc(/C=c2\sc3nc4ccccc4n3c2=O)c(C)n1-c1ccc(C(=O)O)cc1	-17	99	.	-4
39	C(=N\Nc1ccc2nncn2n1)/c1ccccn1	.	.	.	.
40	COC(=O)Cn1nnc(N2CCOCC2)n1	.	.	.	.
41	O=C(COc1ccc(C(=S)N2CCOCC2)cc1Cl)Nc1ccccc1Cl	27	138	.	-8
42	Cc1ccc(S(=O)(=O)CCc2nnc(NC(=O)c3cnccn3)s2)cc1	-46	121	-2.8	-9
43	Cc1ccccc1C(=O)c1c[nH]c(C(=O)NCC2CCCO2)c1 (centres undefined)	7	77	0.2	3
44	O=C(C1=COCCO1)N1CCN(C(c2ccccc2)c2ccccc2)CC1	-200	29	-2.3	16

nr	HSV augment	HSV augment primary fold	RGS16-Gao HTS
33	i	0.94	97
34	i	1	104
35	i	1.1	99
36	i	0.65	104
37	i	1	113
38	i	1.3	102
39	i	0.85	105
40	i	1.1	95
41	i	0.79	95
42	i	0.98	103
43	i	1	101
44	i	1.2	101

# Next part.
nr	Compound	Insulin prom inh	Insulin prom inh cell count	GALR2 agonist	PKD1 kinase inh
46	Cc1cc2ccccc2n2c(SCC(=O)N3CCc4ccccc4C3)nnc12	50	100	-2.2	-7
47	Cc1onc(-c2ccccc2)c1C(=O)Nc1ccncc1	20	103	-0.7	-2
48	COc1ccc(-c2csc(NC3OC(=O)c4ccccc43)n2)cc1 (centres undefined)	.	.	.	.
49	COc1ccccc1C(=O)OCC(=O)Nc1cc(S(=O)(=O)N2CCOCC2)ccc1N1CCCC1	.	.	.	-2
50	COc1ccc(OC)c(C2CC(=O)N3CN(c4cccc(Cl)c4C)CSC3=C2C#N)c1 (centres undefined)	.	.	-1.8	-2
51	CCCCC(=O)N(Cc1ccc(F)cc1)C1CCS(=O)(=O)C1 (centres undefined)	.	.	.	.
52	CC1(C)c2ccccc2-n2c1cc1oc(=O)cc(O)c1c2=O	.	.	.	.
53	O=C(C1CCN(S(=O)(=O)Cc2ccccc2)CC1)N1CCCc2ccccc21	-23	160	-1.1	10
54	CCOC(=O)C(=O)Nc1ccc2c(c1)OCO2	7	299	1.0	-7
55	O=C1C(c2ccncc2)=C(O)c2ccccc21	3	84	-1.8	5
56	CC(C)c1ccc(CNC(=O)CSCC(=O)Nc2ccc3ccccc3c2)cc1	-24	57	-1.4	-3
57	Cc1cc2c(c(/C=C/C(=O)c3ccccc3)c1)OC1(C=C2)Oc2ccccc2C(=O)N1C (centres undefined)	50	82	.	-1
58	Cc1nc(NC(=O)COC(=O)CCS(=O)(=O)c2ccccc2Cl)c(Cl)cc1Cl	-21	88	-1.6	-7
59	C[C@H](NC(=O)CCn1nnc2ccccc2c1=O)C(=O)O	.	.	.	.
60	Cc1ccc(C)c(NC(=O)c2cnn3ccccc23)c1	.	.	-3.8	2

nr	HSV augment	HSV augment primary fold	RGS16-Gao HTS
46	i	0.95	69
47	i	0.93	104
48	i	0.65	101
49	i	0.98	89
50	i	1	.
51	i	0.96	104
52	i	0.8	100
53	i	0.99	100
54	i	0.92	96
55	i	0.81	102
56	i	0.77	101
57	i	0.81	110
58	i	1	96
59	i	1	104
60	i	0.92	101

# The listing continues:
nr	Compound	Insulin prom inh	Insulin prom inh cell count	GALR2 agonist	PKD1 kinase inh
61	CCn1c(COc2ccccc2C)nnc1SCC(=O)OC	16	74	-0.8	-18
62	Cc1ccc(S(=O)(=O)N2CCCC(C(=O)Nc3cccnc3)C2)cc1 (centres undefined)	-11	135	-3.8	-2
63	O=C(CSc1ncn[nH]1)OCN1C(=O)c2ccccc2C1=O	69	88	-1.5	7
64	O=C(CSc1ncccn1)Nc1cc(Cl)ccc1[N+](=O)[O-]	17	101	.	-5
65	CC(C(=O)Nc1cccc([N+](=O)[O-])c1)N(c1ccccc1)S(C)(=O)=O (centres undefined)	47	97	.	1
66	CCOC(=O)c1ccc(NC(=O)/C=C/c2cccs2)cc1	.	.	.	3
67	Cc1onc(-c2c(F)cccc2Cl)c1C(=O)N=C(N)N1CCCC1	.	.	.	.
68	O=C(CSc1nnc(-c2ccccc2)o1)n1c2c(c3ccccc31)CCCC2	54	119	-2.5	-8
69	Cc1sc2nc(CN3CCC(C)CC3)nc(Cl)c2c1C	-6	116	-2.2	0
70	O=C(O)c1ccc(NC(=O)c2cn(-c3ccccc3)nc2-c2ccc(Cl)cc2)cc1	.	.	.	1
71	Cc1[nH]c(=O)[nH]c(=O)c1S(=O)(=O)N1CCCC(C(=O)NCc2ccccc2Cl)C1 (centres undefined)	7	80	-1.5	-18
72	COc1ccc(CNC(=O)c2c(O)c3cccc4c3n(c2=O)CCC4)cc1	31	105	-1.2	-12
73	Cc1c(NC(=O)C(C)N2C(=O)C3C4C=CC(C4)C3C2=O)c(=O)n(-c2ccccc2)n1C (centres undefined)	.	.	-1.8	-1
74	COC(=O)c1c(C(=O)OC)c(-c2cccc(Cl)c2)n2c1CS(=O)C2 (centres undefined)	-29	136	.	-3
75	COc1cccc(/C=C2\N=C(c3c(-c4ccccc4)noc3C)OC2=O)c1OC	-11	97	-2.2	-1
76	O=C1Nc2ccccc2Nc2ncccc21	.	.	-0.9	5

nr	HSV augment	HSV augment primary fold	RGS16-Gao HTS
61	i	0.92	96
62	i	0.83	105
63	i	1	101
64	i	0.94	128
65	i	1	89
66	i	0.97	103
67	i	0.65	99
68	i	0.94	97
69	i	0.94	101
70	i	0.89	83
71	i	0.99	103
72	i	0.98	102
73	i	0.97	103
74	i	1	102
75	i	0.89	98
76	.	.	98

# Screening results: PubChem BioAssay, several laboratories
